# Screening results: PubChem BioAssay, National Center for Advancing Translational Sciences (NCATS)
# VDR inh: vitamin D3 receptor (human) inhibition; VDR-SRC2-3 peptide fluorescence polarization, 2 h; Potency, µM, for inactives: max response, negative = inhibition, most hits filed as inhibitors; 400,000 compounds, 0.93% hits; active means well fitted inhibition curve with a large enough effect; inconclusive means small, poorly fitted or top-dose-only effect, or another doubt; inactive means no such curve, though single readings can be large or run the other way; further: series mostly up to about 120 µM
# Target sequence (P11473 whole entry, looked up): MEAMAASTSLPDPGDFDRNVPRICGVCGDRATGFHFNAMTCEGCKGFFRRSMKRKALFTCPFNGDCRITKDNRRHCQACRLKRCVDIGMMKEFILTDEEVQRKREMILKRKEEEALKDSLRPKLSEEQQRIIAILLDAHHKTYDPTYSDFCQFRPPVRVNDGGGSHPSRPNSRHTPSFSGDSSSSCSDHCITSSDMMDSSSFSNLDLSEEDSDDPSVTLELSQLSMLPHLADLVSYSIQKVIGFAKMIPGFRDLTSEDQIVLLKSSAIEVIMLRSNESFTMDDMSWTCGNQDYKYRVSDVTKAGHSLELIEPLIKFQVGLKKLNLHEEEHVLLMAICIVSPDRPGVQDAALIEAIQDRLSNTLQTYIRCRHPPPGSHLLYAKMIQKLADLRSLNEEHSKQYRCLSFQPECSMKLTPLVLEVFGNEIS
#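 Inhibition of the VDR/SRC2-3 peptide interaction is quantified by fluorescence polarization. Compounds (23 nl, pintool) incubate with the reagents for 2 hours at ambient room temperature.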
# Starred values were filed as active, the others as inactive; u = inconclusive; [ ] = another dose, or the depositor's remark. On the % scale 0 is the no-effect control and ±100 the full control effect; potency means the concentration at half of the fitted maximal effect.
canonical_smiles | VDR inh
Cc1ccc(NC(=O)CN2C(=O)/C(=C3\SC(=S)N(C4CCS(=O)(=O)C4)C3=O)c3ccccc32)cc1 (centres undefined) | -4.1%
Cc1ccc(NC2=CC(=O)CCC2)cc1C | 9.6%
Cc1oc2ccc(OC(C(=O)O)c3ccccc3)cc2c1C(=O)O (centres undefined) | -20.7%
COc1ccc2c(c1)CCc1c(C(=O)N(C)c3ccccc3)noc1-2 | -10.7%
CCOc1ccc(S(=O)(=O)NCCC(=O)N2CCN(Cc3ccccc3)CC2)cc1 | -4.6%
Cc1ccc(C2(C)NC(=O)N(CC(=O)c3ccc(Cl)s3)C2=O)cc1 (centres undefined) | u
CCOC(=O)c1ccccc1NC(=O)c1cc2ccccc2o1 | -7.7%
COc1ccc(CCNC(=O)c2ccc(CS(=O)(=O)c3ccc(Br)cc3)o2)cc1OC | 5.5%
Cc1c(C(=O)NCCN2CCOCC2)sc2nc(-c3ccc(F)cc3)cn12 | 4.0%
CC(C)(C)c1ccc(Cn2c(=N)n(CC(O)c3ccco3)c3ccccc32)cc1 (centres undefined) | -12.3%
Cc1cc(C)c(OCC(=O)OCC(=O)NCc2cccs2)c(C)c1 | 1.1%
O=C(NCc1ccccc1)c1noc2c1CCCCC2 | 14.1%
COc1ccc(C2N3CC4(C)CN2CC(C)(C3)C4O)cc1 (centres undefined) | -10.8%
O=C(COc1ccc(OCc2ccccc2)cc1)NC1CCOC1=O (centres undefined) | -1.8%
CCc1ccc(Nc2nn(-c3ccc(OC(F)(F)F)cc3)nc2C(C)=O)cc1 | -5.5%
COP(=O)(OC)OC(c1ccc(Cl)cc1)P(=O)(OC)OC (centres undefined) | 2.2%
Cc1ccc(NC(=O)CS(=O)CC(=O)N(c2ccccc2)C(C)C(=O)NC2CCCC2)cc1 (centres undefined) | -10.1%
O=C(/C=C/c1cccc([N+](=O)[O-])c1)OCC(=O)N1CCOCC1 | 7.5%
Cc1cccc(N2CCN(C(=O)CCc3nc4ccccc4c(=O)[nH]3)CC2)c1C | 0.1%
N#CC1CCN(C(=O)c2ccc3c(Cl)c4c(nc3c2)CCCC4)CC1 | -4.3%
Cc1noc(NS(=O)(=O)c2ccc(N/C=C/C(=O)c3ccc(F)cc3)cc2)c1C | -6.2%
CCCCN1C(=O)c2ccc(C(=O)OCC(=O)N3CCN(c4ccccc4)CC3)cc2C1=O | 88.6%[activator]
COCCCN1C(=O)C(=O)/C(=C(/O)c2ccc(OCC(C)C)cc2C)C1c1cccnc1 (centres undefined) | -9.1%
CC(C)(C)C1(O)CC(C(F)(F)F)=NN1C(=O)Cc1ccc([N+](=O)[O-])cc1 (centres undefined) | -9.0%
Cc1onc(-c2ccccc2)c1C(=O)NCC1CCCO1 (centres undefined) | 30.0%[activator]
CCCCC(=O)Nc1cccc(NC(=O)c2cccnc2Cl)c1 | -9.8%
O=C(Nc1ccc(-n2nncc2-c2ccccc2)cc1)c1cccc(F)c1 | 13.2%
Cc1ccc(NC(=O)CN(C)C(=O)CSc2nnc(N)s2)cc1 | -15.7%
CCC(CC)COC(=O)C1=C(C)NC(=O)NC1c1ccc2c(c1)OCO2 (centres undefined) | 5.0%
CC(Sc1nc(=O)cc(N)n1CCc1ccccc1)C(=O)Nc1ccccc1C#N (centres undefined) | -13.8%
COC(=O)c1ccc(COc2ccc(C(C)(C)C)cc2)o1 | -14.5%
CCOc1ccccc1NC(=O)c1cc(-c2ccccn2)nc2ccccc12 | -15.3%
Cc1ccc2[nH]c3c(c2c1)CCCC3C(N)=O (centres undefined) | -1.7%
COC(=O)C1CCN(Cc2cn(-c3ccccc3)nc2-c2ccc3c(c2)OCO3)CC1 | 4.3%
CC1CCC(N2CCN(S(C)(=O)=O)CC2)CC1 (centres undefined) | -16.7%
CCc1ccccc1N=Cc1c(C)c(C#N)c2[nH]c3ccccc3n2c1=O | -3.7%
Cc1c(C(=O)N(C)c2ccccc2)sc2nc(-c3ccc(F)cc3)cn12 | 14.6%
COc1ccc(-c2nnn(CCc3nn[nH]n3)n2)cc1 | 7.6%
CCN(Cc1ccccc1)S(=O)(=O)c1ccc(C(=O)N(CCCN(C)C)c2nc3cc4c(cc3s2)OCO4)cc1 | -2.3%
Cc1coc2cc3oc(=O)cc(C)c3cc12 | -18.3%
CCn1c(O)c(N=NC(=O)Cc2csc(N3CCOCC3)n2)c2ccccc21 | -2.6%
Cc1ccccc1OCCC(=O)Nc1ccc(F)c(Cl)c1 | -17.3%
O=S(=O)(Nc1nccs1)c1ccc2c(c1)OCCO2 | 2.0%
CN(CC(=O)Nc1ccc(F)c(Cl)c1)S(=O)(=O)c1cccc2nsnc12 | 6.1%
CC(C)CNC(=O)c1cccc(NC(=O)CCc2ccccc2)c1 | -10.1%
Cc1cccc(N(CC(N)=O)C2SC(=O)NC2=O)c1 (centres undefined) | -17.5%
CCOc1ccc(NC(=O)COC(=O)c2c(OC)cccc2OC)cc1 | -2.8%
Cc1ccc(-n2nc3cc(C)c(N)cc3n2)cc1 | u
CCOc1c(C)cc(S(=O)(=O)NCc2cccnc2)c(C)c1C | 10.8%
CCCN(CCC)CCSc1nc(O)c(C(C)C)c(=O)[nH]1 | -11.5%
COc1ccc(CCNc2ncnc3c2nnn3C)cc1 | 8.5%
CCOC(=O)c1cnc(SCC(=O)N2CCc3ccccc32)nc1N | -4.7%
CCOC(=O)c1c(C)[nH]c(C)c1C(=O)COC(=O)c1ccc(OC)cc1 | -22.9%
CCCC(=O)Nc1ccc2nc(SCCOc3ccccc3)sc2c1 | -5.7%
CCOc1ccc(-c2n[nH]c(=S)c3ccccc23)cc1 | 2.7%
CCc1c(C)sc(NC(=O)Cn2nc(C(F)(F)F)c3c2CCCC3)c1C#N | -10.9%
CC1CCCCC1NC(=O)COc1ccc(C#N)cc1 (centres undefined) | -22.7%
CCCCc1nc2cc(C(=O)N3CCN(c4nc(C)cnc4C)CC3)ccc2o1 | -7.6%
CCC1CCCCN1CCCCOc1cccc(Cl)c1 (centres undefined) | 10.6%
c1ccc(SSc2ccccn2)nc1 | 3.16µM*

# The listing continues:
canonical_smiles | VDR inh
COc1ccc(-n2c(=O)c3c(c4cc(OC)ccc4n3C)n(Cc3c(F)cccc3Cl)c2=O)cc1 | 24.8%
CC(=O)Nc1ccc(NC(=O)CS(=O)(=O)Cc2ccccc2)cc1 | -14.2%
CC(=O)N1CC[n+]2c(-c3ccc(Cl)cc3Cl)csc21 | 39.8µM*
FC(F)(F)c1ccccc1CNCc1ccncc1 | -8.6%
Cc1cc(S(=O)(=O)N2CCOCC2)ccc1OCC(=O)Nc1ccccc1F | -12.9%
O=C(CN1CCN(C(=O)c2ccco2)CC1)Nc1ccc2c(c1)OCO2 | 5.2%
Cc1cc(SCc2ccc(Cl)cc2Cl)nc(=O)[nH]1 | -1.3%
O=C(CNC(=O)c1ccc2ccccc2c1)NC1CCCCC1 | 0.7%
O=C(O)[C@@H]1CCCN1C(=O)c1ccco1 | -5.8%
C=CCn1c(SCC(=O)c2ccc(O)c(O)c2)nnc1-c1cccc(C)c1 | -15.2%
COc1ccc(NS(=O)(=O)c2cccc(C(=O)NN=Cc3cc(Br)c(O)c(Br)c3)c2)cc1 | 1.2%
Clc1cccc(-c2nnc(CN3CCN(c4ccccn4)CC3)o2)c1 | 0.5%
O=C(Nc1ccc(OC(F)F)cc1)c1cc(S(=O)(=O)N2CCCCC2)ccc1N1CCOCC1 | -12.1%
COc1cccc(Nc2nnc(SCN3C(=O)c4ccccc4C3=O)s2)c1 | 12.5%
CCCC(C)C(=O)Nc1ccc(S(N)(=O)=O)cc1 (centres undefined) | 0.0%
Cc1cc(S(=O)(=O)Nc2c(C)nc3nc[nH]n3c2=O)ccc1F | -12.1%
Cc1cccc(CCNC(=O)c2c[nH]c3ccc(S(=O)(=O)Nc4ccccc4F)cc3c2=O)c1 | 8.4%
COc1ccc(N(CC(=O)Nc2cccc([N+](=O)[O-])c2C)S(C)(=O)=O)cc1OC | -13.2%
CC(=O)OC1CCC2(C)C(CCC3C2CC(=O)C2(C)C3CC(C(C(C)=O)C(C)=O)C2C(C)=O)C1 (centres undefined) | -1.7%
CCOC(=O)c1c(NC(=O)/C=C\C(=O)O)sc(C)c1-c1ccccc1 | -26.4%
CC(C)Cc1csc(NC(=O)c2ccccc2Cl)c1C(=O)O | -12.1%
O=C(Nc1ccc2c(c1)OCCO2)C(=O)c1c[nH]c2ccccc12 | 29.1%
Cc1cc(C(=O)CSc2ncccn2)c(C)n1-c1cccc(F)c1 | -17.2%
CCCCc1nc(N)c(C#N)c(-c2ccco2)c1CCC | -3.0%
NC1=NC(=O)/C(=C/c2cn(CCC(=O)O)nc2-c2ccc(F)cc2)S1 | -2.6%
CC(=O)Nc1cccc(-c2csc(Nc3ccc(C)cn3)n2)c1 | 2.2%
CCS(=O)(=O)N1Cc2ccccc2CC1C(=O)Nc1nc2ccc(F)cc2s1 (centres undefined) | 5.3%
O=C(NC1CCCC1)C(c1ccncc1)N(C(=O)c1csnn1)c1cccc(Cl)c1 (centres undefined) | -1.9%
CC1=[N+]([O-])C(C)(C)C(c2ccc(Br)cc2)=[N+]1[O-] | -14.5%
COC(=O)C1SCC2C(=O)N(Cc3ccc(Cl)cc3)CC(=O)N21 (centres undefined) | -15.4%

# Already shown: 5 of the compounds above.
canonical_smiles | VDR inh
CC(=O)Nc1cccc(-c2csc(Nc3ccc(C)cn3)n2)c1 | 2.2%
CCS(=O)(=O)N1Cc2ccccc2CC1C(=O)Nc1nc2ccc(F)cc2s1 (centres undefined) | 5.3%
O=C(NC1CCCC1)C(c1ccncc1)N(C(=O)c1csnn1)c1cccc(Cl)c1 (centres undefined) | -1.9%
CC1=[N+]([O-])C(C)(C)C(c2ccc(Br)cc2)=[N+]1[O-] | -14.5%
COC(=O)C1SCC2C(=O)N(Cc3ccc(Cl)cc3)CC(=O)N21 (centres undefined) | -15.4%

# The list continues:
canonical_smiles | VDR inh
O=C(COc1ccc(S(=O)(=O)N2CCCCC2)cc1)N1CCCCCC1 | -11.8%
COc1ccc(S(=O)(=O)c2cn(C)c3cc(N4CCOCC4)c(F)cc3c2=O)cc1 | 5.6%
CCS(=O)(=O)Nc1cc(OC)c(OC)cc1Cc1nccc2cc(OC)c(OC)cc12 | -6.1%
CCC(=O)NC(=S)Nc1ccc(S(=O)(=O)NC2CCCCC2)cc1 | 0.4%
O=C(N/N=C/C1CC2CCC1C2)C1CC1 (centres undefined) | 21.1%
Cc1ccc(-c2nnn(CC(=O)NCCc3ccc4c(c3)OCO4)n2)o1 | 6.9%
O=C(NCc1cccnc1)C1CCC(CNS(=O)(=O)c2ccc(Cl)cc2)CC1 (centres undefined) | -13.9%
Cc1csc(NC(=O)c2cc(-c3ccncc3)nc3ccccc23)n1 | 3.4%
COc1ccc(/C=C/c2nc3cc(-c4ccccc4)ccc3o2)cc1O | 3.1%
Cc1ccc2cc(CN(CC3CCCO3)S(=O)(=O)c3c(C)ccc4nsnc34)c(=O)[nH]c2c1 (centres undefined) | 4.2%
CN1CCN(c2ncc3nc(-c4ccc(Cl)cc4)c(=O)n(CCC#N)c3n2)CC1 | u
COc1ccc(Br)cc1S(=O)(=O)N1CC(C)OC(C)C1 (centres undefined) | -6.5%
CCOc1ccc(-c2cc(NC(=O)Nc3ccccc3Cl)c(C(=O)OC)s2)cc1 | 4.4%
CCCn1c(=O)[nH]c(=O)c2c1nc(-c1ccc(OC(F)(F)C(F)C(F)(F)F)cc1)n2CCOC (centres undefined) | -0.4%
O=C(CNC(=O)c1ccc(Br)o1)NCc1ccc2c(c1)OCO2 | 1.7%

# 3 compounds from above, sorted by count of non-hydrogen atoms, highest first.
canonical_smiles | VDR inh
CCN(Cc1ccccc1)S(=O)(=O)c1ccc(C(=O)N(CCCN(C)C)c2nc3cc4c(cc3s2)OCO4)cc1 | -2.3%
COc1ccc(CCNC(=O)c2ccc(CS(=O)(=O)c3ccc(Br)cc3)o2)cc1OC | 5.5%
Cc1ccc(NC(=O)CN(C)C(=O)CSc2nnc(N)s2)cc1 | -15.7%

# Additional compounds
canonical_smiles | VDR inh
COc1ccccc1NC(=O)Nc1ccnn1C1CCCCC1 | 15.4%
CC(=O)c1c(C)nc2ccccn12 | 1.5%
Cc1ccc2nc(-c3ccc(NC(=O)CCN4C(=O)c5ccccc5C4=O)cc3)sc2c1 | -13.8%
CC1CCN(C(C)C(=O)Nc2ccc(S(=O)(=O)N3CCCC3)cc2)CC1 (centres undefined) | -11.8%
O=C(NCCOc1ccccc1Cl)c1cc(F)c(F)cc1Cl | -10.5%
CCOC(=O)c1c(C)[nH]c(C)c1S(=O)(=O)NCC(=O)NCc1cccc(C)c1 | 6.4%
Cc1ccc(NC(=O)C2CCN(S(=O)(=O)c3ccc4[nH]c(=O)ccc4c3)CC2)cc1C | 20.7%
CC1CCCCC1NC(=O)COC(=O)c1ccc2ccccc2n1 (centres undefined) | -0.8%
COc1ccc(C2=NS(=O)(=O)N(C)C(C(=O)Nc3ccc(F)cc3F)=C2)cc1 | -6.3%
CCOC(=O)C1C(=O)C=C(c2ccc(C)cc2)CC1c1cccc([N+](=O)[O-])c1 (centres undefined) | -6.9%
Cc1cccn2c(N)c(-c3ccccc3)nc12 | -6.5%
CCCCOc1ccc(C(=O)Nc2ccc(-c3nc4ccccc4s3)cc2C)cc1 | -13.0%
Cc1ccccc1NC(=O)COC(=O)c1cccc(S(=O)(=O)N2CCCCC2)c1 | 29.9%
CN(c1ccccc1)S(=O)(=O)c1cccc(C(=O)Nc2nn[nH]n2)c1 | 12.2%
CCCc1nc2ccccc2c(=O)n1-c1ccc(C(=O)OCC)cc1 | 15.9%
O=S(=O)(Nc1ccc(-c2nc3cccnc3s2)cc1)c1cccs1 | -13.1%
COc1ccccc1CN(C)C(=O)c1cc(C)nc2ccccc12 | 5.9%
CCOC(=O)C(NC(=O)c1ccc(OC)cc1)(Nc1cc(C)on1)C(F)(F)F (centres undefined) | 2.7%

# Only part of the results is shown; rates above refer to the full screens.
